T cruzi inh = blocks replication of Trypanosoma cruzi; T. cruzi beta-gal in NIH3T3, luminescence, 90 h; inhibition, % (concentration not given with the values); hit rate 1.4% among 300,000; AID 1885;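 active means mean inhibition across valid replicates above about 55%, limit read from the data; inconclusive means mean below that limit but half or more replicates reach it; inactive means mean below it, under half of replicates reach it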;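 further: signal also drops with host cell toxicity which is not excluded here; 0% = plate median of DMSO wells and 100% = zero luminescence signal; higher percent means less beta-gal luminescence so fewer parasites; stock transfer was 50 nL into about 50 µL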
B2AR ag = human beta-2 adrenergic receptor agonism by FAP | P07550 | Am2.2-beta2AR cells, FAP receptor internalization, flow cytometry; reference of the scale not given here | response, % (no concentration beside the values) | hit rate 0.43% among 340,000;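 active means response above a set limit, near 3 SD of response in nonfluorescent compounds, cut at about 42% in these data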;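 further: stock transfer was 100 nL into about 11 µL; a reference agonist was the positive control; negative values mostly stem from fluorescent compounds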
RanGTP-Impb inh = inhibitors of RanGTP-importin-beta interaction, primary screen, biochemical, FRET, CFP-Ran, YFP-importin-beta, homogeneous | hit rate 1.1% among 300,000 | AID 2216 | cell-free CFP-Ran/YFP-importin-beta FRET ratio | inhibition, % (concentration not given with the values);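 active means most replicates above 15%; inconclusive means exactly half above 15%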;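 further: 0% = DMSO wells and 100% = Ran loaded with GDP instead of GTP; wells of about 40 µL received 100 nL stock; the first replicate is given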
Beta cell apopt = beta cell apoptosis inhibition | INS-1E cytokine-induced death, ATP luminescence, 48 h; percent of positive-control rescue, neutral wells zero | protection from apoptosis, % (concentration not given with the values) | hit rate 0.8% among 300,000 | AID 435005;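 active means all replicates at 75% or more, or half of them and the mean; inconclusive means half reach 75% but not the mean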;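 further: 0% = cytokine-treated negative control wells and 100% = positive control rescue; higher means more ATP so stronger rescue from cytokine killing; wells of about 40 µL received 100 nL stock; the first replicate is given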
UCH37 inh = blocks the human deubiquitinase UCH37; Q9Y5K5; purified proteasome/UCH37, Ub-AMC cleavage fluorescence; inhibition, % (concentration not given with the values); hit rate 0.33% among 330,000;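 active means mean of two replicates above 20%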;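 further: 0% = compound-free wells with enzyme and 100% = wells lacking proteasome; stock transfer was 100 nL into about 20 µL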
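Assay system: Proteasome-bound UCH37. Buffer or medium: pH 7.4 Tris-HCl (50 mM) with ovalbumin, ATP-MgCl2, DTT. Incubation: 30 min preincubation with enzyme, 25 min cleavage at room temperature. Measured by: fluorescence, ex 355 nm, em 460 nm. Read-out basis: percent inhibition. Control set: wells without proteasome as full block, compound-free enzyme plus substrate as uninhibited.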
A1 inh = inhibitors of the anti-apoptotic protein A1, read as caspase activation. hit rate 0.066% among 330,000. MEF A1-2A-BIM cells, Caspase-Glo 3/7 luminescence, 3 h; percent of clofoctol response, vehicle zero. caspase activation, % (concentration not given with the values). AID 2462;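 active means over half of replicate activation scores above 10%, or exactly half above 10 with the replicate mean above 10; inconclusive means replicate mean below 10 yet half the replicates above 10; inactive means over half of replicates below 10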;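 further: wells of about 30 µL received 50 nL stock; many hits fall short of the cut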
LANA-H2B inh = blocks KSHV LANA binding to histone H2A/H2B | Q9QR71 | cell-free LANA-H2A/H2B peptide, fluorescence polarization | inhibition, % (concentration not given with the values) | hit rate 0.6% among 320,000 | AID 2629; in the data active means inhibition mostly above about 10%, no sharp cut-off; inactive means mostly below about 6.7%;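 further: stock transfer was 7.5 nL into about 10 µL; 0% = median of vehicle wells and 100% = median of positive control wells; one replicate is shown; the record names a cut of 25% in any replicate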
Target sequence (Q9QR71 whole entry, looked up): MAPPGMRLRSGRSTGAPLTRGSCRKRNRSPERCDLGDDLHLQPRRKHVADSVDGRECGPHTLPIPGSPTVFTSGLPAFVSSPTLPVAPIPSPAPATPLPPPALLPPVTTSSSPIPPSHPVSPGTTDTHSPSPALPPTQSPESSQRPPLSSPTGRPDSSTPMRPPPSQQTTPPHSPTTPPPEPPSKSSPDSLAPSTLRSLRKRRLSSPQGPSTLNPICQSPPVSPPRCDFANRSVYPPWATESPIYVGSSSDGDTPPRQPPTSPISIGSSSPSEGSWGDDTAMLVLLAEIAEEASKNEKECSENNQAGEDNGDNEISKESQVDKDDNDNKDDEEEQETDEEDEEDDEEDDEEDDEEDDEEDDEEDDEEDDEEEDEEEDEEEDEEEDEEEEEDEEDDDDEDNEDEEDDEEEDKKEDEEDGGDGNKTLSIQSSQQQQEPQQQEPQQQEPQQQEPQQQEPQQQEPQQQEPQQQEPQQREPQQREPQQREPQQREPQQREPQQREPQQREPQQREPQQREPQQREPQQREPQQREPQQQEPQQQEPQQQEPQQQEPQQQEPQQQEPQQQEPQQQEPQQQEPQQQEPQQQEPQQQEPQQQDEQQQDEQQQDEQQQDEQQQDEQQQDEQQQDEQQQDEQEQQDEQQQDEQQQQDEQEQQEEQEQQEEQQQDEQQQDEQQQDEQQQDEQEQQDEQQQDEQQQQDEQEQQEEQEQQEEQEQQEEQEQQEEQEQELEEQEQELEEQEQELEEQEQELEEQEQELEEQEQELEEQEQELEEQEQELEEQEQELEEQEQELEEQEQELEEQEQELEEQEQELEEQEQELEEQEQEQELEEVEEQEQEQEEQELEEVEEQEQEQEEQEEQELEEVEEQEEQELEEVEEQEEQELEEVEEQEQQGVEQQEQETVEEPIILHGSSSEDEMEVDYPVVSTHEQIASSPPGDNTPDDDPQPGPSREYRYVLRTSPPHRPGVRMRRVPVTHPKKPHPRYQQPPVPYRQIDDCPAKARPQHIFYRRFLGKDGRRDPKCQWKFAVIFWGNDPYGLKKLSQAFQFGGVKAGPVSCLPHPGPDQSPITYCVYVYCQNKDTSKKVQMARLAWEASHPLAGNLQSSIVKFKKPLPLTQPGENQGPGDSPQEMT
Calb FLC = affects C. albicans growth with fluconazole; C. albicans CaCi-2 (fluconazole-resistant clinical isolate) + fluconazole, Alamar Blue growth, 48 h; growth inhibition, % (concentration not given with the values); hit rate 0.57% among 300,000;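 active means most replicates above 75%; inconclusive means exactly half above 75%; inactive means most below 75%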;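 further: all wells also contain fluconazole at 8 µg/ml as a sub-toxic cotreatment; 0% = median of DMSO wells and 100% = median of geldanamycin control wells; wells of about 8 µL received 7.5 nL stock; the first replicate is given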
Active calls of the source: *; i = inactive; ? = inconclusive; / = no result given.

Each structure is followed by: T cruzi inh, B2AR ag, RanGTP-Impb inh, Beta cell apopt, UCH37 inh, A1 inh, LANA-H2B inh, Calb FLC
(1) COc1ccc(CCNC(=O)CSc2nccc(=O)[nH]2)cc1OC
 : -4, -5, 4.7, 1, 3.7, -0.2, -0.1, 16
(2) N=C1/C(=C\c2ccc(-c3cccc(C(=O)O)c3)o2)C(=O)N=C2SC=C(c3ccccc3)N12
 : -6, 19, -16, 1, 15, -7.9, -3.4, -7
(3) Fc1ccccc1N1CC(c2ccccc2)C(c2cccs2)=N1 (stereo not given)
 : -3, -1, 20*, 3, i, -0.1, 6.6, -26
(4) CCCCn1c(N)c(N(CC(C)C)C(=O)c2ccc(F)c(S(=O)(=O)N3CCOCC3)c2)c(=O)[nH]c1=O
 : 1, -4, -4.1, 3, 2.1, 0.6, 0.9, 2
(5) COC(=O)c1sccc1NC(=O)c1ccc(OC)cc1OC
 : -28, -5, 3.5, /, -0.7, -0.3, 3.8, 21
(6) O=C(CN1CCN(S(=O)(=O)N2CCCCC2)CC1)Nc1cc(Cl)cc(Cl)c1
 : 11, 8, -2.1, 3, -0.6, 1.1, 8.0, 4
(7) CCCNC(=O)Nc1ccccc1C(=O)Nc1ccc(OC)cc1
 : 0, -5, 0.0, 3, 5.6, 0.0, 2.1, 1
(8) CCOc1cc(C(=O)OCc2ccc(C(=O)OC)o2)cc(Br)c1OC
 : 14, /, -1.6, 3, 1.6, 0.3, -1.3, 31
(9) O=C(c1cc2ncccn2n1)N1CCc2c([nH]c3ccccc23)C1c1ccccc1F (stereo not given)
 : 22, -6, 0.3, 2, 3.4, 0.0, -1.5, 58
(10) COc1ccc(F)cc1S(=O)(=O)N1CCC2(CC1)OCCN2S(=O)(=O)c1cccs1
 : 7, -9, -1.6, 0, -0.7, 0.3, -1.2, -1
(11) Cc1cc(C)n(-c2nc3ccccc3c(=O)n2OCc2ccc(F)cc2)n1
 : -20, -5, 1.9, -1, -1.2, 0.8, -1.5, 23
(12) CC(C)NC(=S)NNC(=O)C12CC3CC(CC(C3)C1)C2
 : -8, -2, -3.0, -2, 0.9, 0.3, -3.9, -24
(13) O=S(=O)(NCC(c1ccccc1)N1CCNCC1)c1ccc(Cl)cc1 (stereo not given)
 : 5, 16, -4.3, -2, 3.6, -0.2, -4.6, -6
(14) Cc1ccc(Sc2c(C)nn(C(=O)CNS(=O)(=O)c3ccc(F)cc3)c2C)cc1
 : -8, -1, 3.7, -5, 2.7, -0.7, -3.4, 14
(15) N/C(=N\OC(=O)c1ccc([N+](=O)[O-])cc1)c1cccnc1
 : 8, 2, 0.0, /, /, -4.1, 1.3, -2
(16) CN1CCN(S(=O)(=O)c2ccc(Nc3ccc(F)cc3)nc2)CC1
 : -9, -6, -1.8, -4, 4.0, -0.8, 3.8, -2
(17) COc1ccccc1CC(=O)Nc1c[nH]c(=O)[nH]c1=O
 : -6, 3, -1.3, -3, 3.6, 0.4, -2.7, -5
(18) CCCCN(CC)S(=O)(=O)c1ccc(C(=O)Nc2nnc(COC)o2)cc1
 : -28, -1, 0.6, 1, 0.4, ?, -3.0, ?
(19) COc1cccc(Nc2nc(-c3ccc4c(c3)OCCO4)cs2)c1
 : 11, -2, 2.8, 2, -18, -5.2, -18, 29
(20) CCC/C(=N\NC(=O)CNC(=O)c1ccc(Cl)cc1)c1ccccc1
 : 3, -11, -1.7, -6, /, -0.9, 2.7, 0
(21) OCCN1CCN(C(=S)c2ccc(Br)cc2)CC1
 : 10, 6, 4.4, -9, 2.3, -0.5, 0.0, -7
(22) COc1ccccc1-c1nc(-c2ccccc2)[nH]c(=O)c1C#N
 : -5, -1, 2.0, -1, 2.0, 0.1, -0.1, 8
(23) C=CCn1c(-c2ccc3[nH]c(C)c(C)c3c2)n[nH]c1=S
 : 9, -6, 0.7, -10, 0.9, 0.1, -2.6, 0
(24) COc1ccc(C2=CC(=O)CC(C)(C)C2)cc1
 : /, 1, /, 0, -0.3, 0.0, 2.9, /
(25) CN(C)C(=O)c1ccc(NC(=O)c2ccc(-c3ccc(Cl)cc3)o2)cc1
 : 11, -9, ?, -14, /, 0.4, -2.4, /
(26) Cc1ccnc(NC(=O)c2cc(-n3cnnc3)ccc2Cl)c1
 : -11, -10, 9.4, -2, -0.3, 1.4, 3.0, 8
(27) Cc1nc2ccsc2c(=O)n1-c1ccc(Cl)cc1
 : -15, -8, -1.5, -7, 2.1, -0.3, -0.6, 10
(28) Cc1cccc(OCCC(=O)NCC(=O)Nc2cccc(C)c2C)c1
 : -1, -3, 3.1, 2, -1.1, 0.2, -1.0, 3
(29) CCOc1ccc(N2C(=O)CC(SC(=NC)Nc3ccc4c(c3)OCO4)C2=O)cc1 (stereo not given)
 : 33, -3, -0.7, 2, -1.2, 1.3, -2.3, -1
(30) CCn1c(CC(=O)Nc2ccccc2F)nnc1SCC(=O)Nc1nnc(C)s1
 : -2, -3, -1.1, -3, 5.2, 0.1, 0.5, -12
(31) Cc1ccc(N/N=C(\C#N)C(N)=S)cc1C
 : -4, 10, 1.1, -4, /, -2.5, -0.8, 56
(32) COc1ccccc1Nc1nc(N)nc(CSc2ncccn2)n1
 : 0, -16, -3.3, -5, 5.6, 0.8, -0.4, -9
(33) Cc1ccccc1N(C(=O)c1csnn1)C(C(=O)NC1CCCCC1)c1ccncc1 (stereo not given)
 : 17, 3, -0.2, 3, 2.3, -0.3, 9.6, 1
(34) Cc1coc2c1c(C)cc1oc(=O)c(CC(=O)NCC(=O)O)c(C)c12
 : -1, 2, 1.1, 5, i, -0.1, 10, -1
(35) CCCC(=O)Nc1ccc(Cl)c(NC(=O)C(C)(C)C)c1
 : -1, -7, -5.6, -1, -1.2, 0.0, 0.0, 8
(36) CCOC(=O)N1CCN(c2cc(=O)n(-c3ccc(OC)cc3)c(=O)[nH]2)CC1
 : /, -1, /, 1, 1.6, -0.2, 0.7, /
(37) CCOc1ccccc1Oc1coc2cc(OC)ccc2c1=O
 : 1, -10, 5.0, -3, 1.4, -1.4, 3.1, 12
(38) N#Cc1ccccc1NC(=O)COC(=O)c1ccc(F)cc1F
 : -9, -4, -1.9, -6, 0.6, 0.8, 5.0, 3
(39) O=C(CSc1nnc(CNC(=O)c2ccccc2)o1)NCc1ccc(F)cc1
 : 0, -5, 1.2, -3, 4.7, -0.1, -6.2, -4
(40) CN1CCN(C2Cc3ccc(Cl)cc3Sc3ccc(F)cc32)CC1 (stereo not given)
 : 51, 14, 1.5, /, 4.3, -0.2, -5.1, 64
(41) CNNC(=S)NCCC1=CCCCC1
 : 5, -12, -1.4, -6, 8.6, -1.0, 1.6, 8
(42) Cc1nc2nc(C)c(NS(=O)(=O)c3cccs3)c(=O)n2[nH]1
 : -7, 8, 4.0, 1, 4.5, -0.7, -6.7, 18
(43) CC1(C)N=c2ccc([N+](=O)[O-])c(N)c2=[N+]1[O-]
 : 5, 2, 2.9, 61, 12, -0.6, -7.4, 23
(44) CCOC(=O)C1(CCOC)CCN(C2C3CC4CC(C3)CC2C4)CC1 (stereo not given)
 : -8, 9, -2.9, -4, 1.3, -0.4, 4.0, -22
(45) CC(=O)Nc1ccc(SCC(=O)c2c(N)n(Cc3ccccc3)c(=O)n(C)c2=O)cc1
 : -10, -3, 3.6, 9, 0.9, 0.0, 11, 5
(46) COc1ccc(NC(=O)COC(=O)c2ncc(Cl)c(Cl)c2Cl)c(OC)c1
 : -6, 7, -0.4, 1, 1.9, 0.0, -0.5, 14
(47) CCCCN(C(=O)c1cccs1)C1CCS(=O)(=O)C1 (stereo not given)
 : 0, 2, 1.3, -1, -0.8, 0.7, -4.4, 4
(48) Cc1cc(OCC(=O)NCc2ccccn2)c2c(C)cc(=O)oc2c1
 : 2, 0, 0.0, -1, -120, 2.5, 1.9, 3
(49) O=C(CSc1nnc(COc2cccc3cccnc23)o1)c1ccc(F)cc1
 : 7, -9, ?, 7, 3.5, 0.8, 3.3, -2
(50) Cc1cc(=O)oc2cc(OCC3CC(c4ccc(Cl)cc4)=NO3)ccc12 (stereo not given)
 : 36, -16, 5.2, 7, -19, -0.2, -7.0, 0
(51) CC1CCN(C(=O)Cn2cc(C#N)c3ccccc32)CC1
 : -4, 12, 3.1, -3, 3.9, 0.4, 2.8, 5
(52) CN(C)CCN(C(=O)c1ccc2c(c1)CCCC2)c1nc2c(F)cccc2s1
 : 18, -10, -1.4, -7, 14, -0.8, 5.9, -3
(53) COc1ccc(Cn2c(-c3ccc(OC)cc3)nc3ccccc32)cc1
 : 36, 6, 1.1, 1, 4.5, 0.8, 3.7, -1
(54) O=C1CC(c2ccccc2)Cc2nc(NC3CC3)ncc21 (stereo not given)
 : -3, -11, 5.2, 2, 0.7, -0.9, 2.6, -1
(55) Cc1ccc(NS(=O)(=O)c2cccc(C(=O)N3CCCCCCC3)c2)cc1
 : 6, -4, 2.9, -1, 1.4, -0.4, 2.1, 2
(56) CCCOC(=O)c1ccc(S(N)(=O)=O)o1
 : -13, -3, 0.9, -7, 0.3, -1.3, 0.7, -2
(57) COC(C[C@@H](O)C[C@H](O)[C@@H](C)OCc1ccccc1)OC
 : 10, -6, -6.1, /, 1.8, /, /, 0
(58) CCCCc1nc(Cl)c(C#N)c2c1CSC(C)(C)C2
 : 4, 12, 11, -7, 4.4, 0.3, 2.5, -12
(59) COc1cc2c(cc1OC)C(c1cccs1)N(C(=O)c1ccncc1)CC2 (stereo not given)
 : -17, -5, -4.4, -4, 5.2, 0.0, -8.1, -8
(60) CCOc1ccc(C(=O)NCc2cccnc2)cc1[N+](=O)[O-]
 : 10, -9, -0.1, -5, 1.1, 0.9, -9.3, -4

(cont.)
Each structure is followed by: T cruzi inh, B2AR ag, RanGTP-Impb inh, Beta cell apopt, UCH37 inh, A1 inh, LANA-H2B inh, Calb FLC
(61) CC(=O)Nc1ccc(S(=O)(=O)NCCC(=O)OCC(=O)c2ccc(F)c(F)c2)cc1
 : -7, 1, 6.0, -4, 0.4, 0.2, -2.6, 8
(62) CC(C)CNC(=O)C(=O)NCc1ccccn1
 : 2, 7, -0.8, 1, 3.2, 1.2, 4.8, 0
(63) Cc1ccc(CCNC(=O)C2CCN(S(=O)(=O)c3ccc4c(c3)NC(=O)CO4)CC2)cc1
 : -3, -1, -2.3, 2, /, 0.1, 2.9, -15
(64) Cc1ccc(NC(=O)COC(=O)COc2cccc3c2OC(C)(C)C3)c(C)c1
 : -5, -4, -1.5, -4, -0.2, 0.3, -1.2, 3
(65) Cc1ccc(NC(=O)c2oc3ccc(S(=O)(=O)N4CCC5(CC4)OCCO5)cc3c2C)cc1C
 : 20, 20, -1.7, 9, 1.7, -0.2, -2.6, 2

Source: PubChem BioAssay
